Screening data deposited in PubChem by National Center for Advancing Translational Sciences (NCATS).
hNpr1 antagonist: human Npr1 receptor antagonism; HEK293 hNpr1 GloSensor cGMP, ANP-stimulated luminescence; 1.6% of 76,000 active; P16066; AID 1347048; Potency, µM (series often up to 46.3 µM), inactives show at the top dose activity change, negative = inhibition, most hits filed as inhibitors; active = well fitted inhibition curve with a large enough effect; inconclusive = small, poorly fitted or top-dose-only effect; inactive = no such curve, though single readings can be large or run the other way;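 further: nearly all actives have a fitted effect of over 60% in size; nearly all hits also lower the signal before the agonist is added; a reference antagonist and vehicle were the controls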
Target sequence (P16066 whole entry, looked up): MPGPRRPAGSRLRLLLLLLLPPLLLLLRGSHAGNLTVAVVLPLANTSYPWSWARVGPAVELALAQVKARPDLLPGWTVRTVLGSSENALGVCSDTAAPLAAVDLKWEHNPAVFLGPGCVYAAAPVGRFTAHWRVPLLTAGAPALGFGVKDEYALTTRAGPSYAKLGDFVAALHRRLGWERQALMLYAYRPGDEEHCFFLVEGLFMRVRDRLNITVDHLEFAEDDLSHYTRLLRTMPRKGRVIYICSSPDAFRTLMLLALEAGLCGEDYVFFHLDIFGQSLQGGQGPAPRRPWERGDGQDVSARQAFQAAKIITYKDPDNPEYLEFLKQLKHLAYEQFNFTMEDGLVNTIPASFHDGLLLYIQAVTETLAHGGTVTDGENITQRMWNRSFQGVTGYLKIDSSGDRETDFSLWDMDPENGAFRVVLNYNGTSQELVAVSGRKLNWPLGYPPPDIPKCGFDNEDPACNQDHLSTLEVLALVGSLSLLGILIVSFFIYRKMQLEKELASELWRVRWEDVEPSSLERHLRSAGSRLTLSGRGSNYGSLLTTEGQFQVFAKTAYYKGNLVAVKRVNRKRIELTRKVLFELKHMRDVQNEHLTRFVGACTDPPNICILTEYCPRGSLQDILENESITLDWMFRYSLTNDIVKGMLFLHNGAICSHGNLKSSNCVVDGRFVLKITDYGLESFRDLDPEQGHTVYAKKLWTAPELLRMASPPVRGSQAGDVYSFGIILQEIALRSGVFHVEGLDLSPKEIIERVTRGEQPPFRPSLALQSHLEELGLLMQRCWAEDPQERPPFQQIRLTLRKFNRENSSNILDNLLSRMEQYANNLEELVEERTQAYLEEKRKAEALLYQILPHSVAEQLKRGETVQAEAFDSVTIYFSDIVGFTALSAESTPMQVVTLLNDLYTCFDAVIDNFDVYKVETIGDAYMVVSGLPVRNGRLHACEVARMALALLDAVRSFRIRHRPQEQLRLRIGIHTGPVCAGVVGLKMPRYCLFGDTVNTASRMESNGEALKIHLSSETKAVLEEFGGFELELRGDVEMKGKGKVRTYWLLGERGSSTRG
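HEK293 cells stably expressing human Npr1 and cGMP GloSensor pGS-40F, loaded 2 h with 2% GloSensor reagent, given compound 30 min at room temperature. Luminescence read before and 20 min after 0.1 nM hNppA.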
Active calls of the source: *; ? = inconclusive; [ ] = dose if it differs, or a comment. On the % scale 0 is the no-effect control and ±100 the full control effect; potency means the concentration at half of the fitted maximal effect.

SMILES	hNpr1 antagonist
CO[C@H]1C(=O)N(C(C)C)[C@H]1C1CCN(C(=O)c2cnc(C)cn2)CC1	4.5%
CN(CC1CCOCC1)C(=O)Nc1cccc(C(F)(F)F)c1	5.5%
CSc1cccc(NC(=O)O[C@@H]2CC[C@]3(C)C(CC[C@@H](O)[C@H]3CC(=O)NCc3ccccc3)[C@]2(C)CO)c1 (stereo partly drawn)	-20.0%
Cc1noc(-c2cn(C3CCN(C(=O)Cc4cccc(F)c4)CC3)nn2)n1	0.0%
COc1ccc(S(=O)(=O)N2CC[C@H]3NC(=O)N(c4ccc(Oc5ccccc5)cc4)C(=O)[C@H]32)cc1	4.3%
O=C(NC1CCc2nn(CC3CC3)c(=O)n2CC1)c1ccc[nH]c1=O (stereo not drawn)	2.2%
O[C@@H]1[C@@H](Cn2cc(-c3cccnc3)nn2)C[C@@H](NC2CCOCC2)[C@@H]1O	-0.4%
C=CCNC(=O)c1coc(COc2ccc3c(c2)C(c2cccc(C)c2)N(C(=O)C2CC2)CC3)n1 (stereo not drawn)	-15.2%
O=C(c1ccc(Cn2cccn2)o1)N1CCn2nc(C(O)CO)cc2C1 (stereo not drawn)	2.7%
Cc1nc(C)c(C(=O)NCC2Cn3cccc3C(=O)N2CC(C)C)s1 (stereo not drawn)	-2.1%
O=C(O)CC1C(=O)NCCN1C1CCCC1 (stereo not drawn)	1.7%
O=C(CC(c1ccccc1)c1ccccc1F)N1CCN(c2ccncc2)CC1 (stereo not drawn)	-4.2%
O=C(Cn1nc2c(cc1=O)CCCCC2)Nc1nnc(C2CCCCC2)s1	-3.8%
COc1cccc(C(=O)N2CC[C@](O)(c3ccccc3)[C@H](N(C)C)C2)c1	7.2%
CC1=C[C@@H](CNC(=O)CCC(=O)O)[C@H](C(C)C)C[C@H]1Cc1nc2ccc(F)cc2[nH]1	9.7%[70.6 µM]
COc1ccc(CNC(=O)[C@@]23CCCC[C@H]2N(C)C(=O)CC3)c(OC)c1	-8.2%
Cc1cc2nc3n(c(=O)c2n1CC(=O)Nc1ccc2c(c1)OCCO2)CCCC3	1.5%
O=C1NC2(CCN(C(=O)Cc3ccccc3)C2)OCc2ccccc21 (stereo not drawn)	14.0%[70.6 µM]
Cn1cc(CN2C[C@@H](F)[C@@H](OCc3nc4ccc(C#N)cc4[nH]3)C2)c2ccccc21	?
CN1[C@@H](CCC(=O)N2CCOCC2)CNC(=O)[C@@H]2[C@H]1CCN2Cc1cccc(OC(F)(F)F)c1	3.2%
CCOCc1nc(C2CCCN(C(=O)C3(c4ccc(OC)cc4)CC3)C2)no1 (stereo not drawn)	-2.0%
C#CCN(C)Cc1nc(C2(O)CCN(Cc3ccccc3C(F)(F)F)CC2)cs1	-6.9%[70.6 µM]
CSCC(=O)N1CCN(C)C2(CCC(=O)N(CC3CC3)CC2)C1 (stereo not drawn)	-1.7%
COC(=O)[C@@H]1Cc2c([nH]c3ccccc23)[C@H]2C[C@@H](NCCNC(C)=O)C[C@@H](c3ccc(C)cc3)N21	-12.1%
Cc1cnc(-c2cccnc2)n1CCN	0.7%
CCCc1noc(-c2cn(C3CCN(C(=O)c4ccc(OC)cc4OC)CC3)nn2)n1	-24.9%
O=C(CC(c1cccc([N+](=O)[O-])c1)c1c[nH]c2ccccc12)NCc1ccccc1 (stereo not drawn)	-13.7%
c1cc(-c2nnc([C@H]3CCN(C4CCCCC4)C3)o2)ccn1	-15.8%[70.6 µM]
N#Cc1ccc(CN2CC[C@H](c3nnc(-c4ccccc4)o3)C2)cc1	-0.9%[70.6 µM]
O=C(Nc1cc(F)ccc1F)N1CC(c2noc(-c3ccccc3)n2)C1	-10.6%

Of the compounds above, these contain a CF3 group:
SMILES	hNpr1 antagonist
CN(CC1CCOCC1)C(=O)Nc1cccc(C(F)(F)F)c1	5.5%
CN1[C@@H](CCC(=O)N2CCOCC2)CNC(=O)[C@@H]2[C@H]1CCN2Cc1cccc(OC(F)(F)F)c1	3.2%
C#CCN(C)Cc1nc(C2(O)CCN(Cc3ccccc3C(F)(F)F)CC2)cs1	-6.9%[70.6 µM]

Next structures follow.
SMILES	hNpr1 antagonist
Cc1ccccc1Oc1c(CCC(=O)N2CCSCC2)c(C)nn1-c1ccc(F)cc1	-24.9%
COc1cccc(CCC(=O)NCCC2CCN(C(=O)Nc3ccc(F)cc3F)CC2)c1	-11.6%
COc1ccc(-c2noc([C@@H]3CCCN3C(=O)CCc3ccccc3)n2)cc1OC	2.2%
COc1cccc(NC(=O)Cn2c(C)ccc(NS(=O)(=O)c3ccccc3)c2=O)c1	0.1%
OCC1CN(c2ncccn2)CC12CCN(Cc1cc(Cl)ccc1F)CC2 (stereo not drawn)	2.6%
O=C(NCc1ccccc1)C1CCN(C(=O)N2CC3CC(C2)[C@H]2CCCC(=O)N2C3)CC1 (stereo partly drawn)	5.2%
CC(C)(C)CN[C@@H]1CO[C@H](CNC(=O)c2ccccc2)[C@H]1O	-2.4%[70.6 µM]
O=c1[nH]nc2n1CCN(Cc1ccc(OC(F)(F)F)cc1)CC2	5.5%
CN(C)C(=O)N1C[C@@H]2CN(C3CCOCC3)C[C@]2(C(=O)O)C1	-1.1%
O=C(Nc1cccc(C(F)(F)F)c1)N[C@H]1[C@H](O)[C@@H](Oc2ccccc2)[C@@H]2OC[C@H]1O2	-28.1%[70.6 µM]
Clc1ccc(Nc2cnc3ccc(-c4ccccc4)nn23)nc1	?
O=C(c1ccccn1)N1C[C@@H]2OCC(=O)N(CC3CCCCC3)[C@@H]2C1	12.3%[70.6 µM]
COc1cc(NC(=O)N[C@H]2CO[C@H]3[C@@H]2OC[C@@H]3Nc2nccc(C(C)(C)C)n2)cc(OC)c1	4.4%
CC(C)NC(=O)c1ccccc1OCC1CCCN(Cc2ccccn2)C1 (stereo not drawn)	-0.3%
O=C(c1ccccc1)N1CCC2(CC1)NC(=O)N(Cc1ccc(F)cc1)C2=O	-21.6%

Sorted by length of the SMILES (largest number first): some entries from above.
SMILES	hNpr1 antagonist
O=C(c1ccccn1)N1C[C@@H]2OCC(=O)N(CC3CCCCC3)[C@@H]2C1	12.3%[70.6 µM]
COc1cccc(CCC(=O)NCCC2CCN(C(=O)Nc3ccc(F)cc3F)CC2)c1	-11.6%
O=C(c1ccccc1)N1CCC2(CC1)NC(=O)N(Cc1ccc(F)cc1)C2=O	-21.6%
CC(C)(C)CN[C@@H]1CO[C@H](CNC(=O)c2ccccc2)[C@H]1O	-2.4%[70.6 µM]

Going on with the list.
SMILES	hNpr1 antagonist
COc1ccc(C(=O)N2CCCC(n3cc(-c4noc(C)n4)nn3)C2)c(OC)c1 (stereo not drawn)	-3.6%
COc1nc2c(cc1CNC(=O)CC1CCCCC1)C(=O)N(C1CCCC1)C2	-2.5%
CN(c1ccc(C(=O)N2CCn3nc(CO)cc3C2)cc1)S(C)(=O)=O	-11.0%
Cc1nc(C)c(C(=O)Nc2nn(Cc3ccccc3)c3cccc(OC(C)C)c23)o1	-1.6%
O=C(NCCc1ccncc1)C1CN(S(=O)(=O)c2ccccc2)CC12CCCCC2 (stereo not drawn)	6.0%
COc1ccc(S(=O)(=O)N2CCCC(Cn3c(C)nc4cccnc43)C2)cc1OC (stereo not drawn)	-24.8%
CCOc1ncccc1Cn1cc(-c2cncnc2)nn1	0.5%
COc1ccc(Nc2ccc3c(n2)CN(Cc2ccc(C(F)(F)F)cc2)C(=O)CO3)cn1	-22.2%
Cc1nn(C)cc1C(C)NC(=O)CN1CCCc2nc(-c3ccccc3)ncc2C1=O (stereo not drawn)	?
COC1C(=O)N(c2cccc(F)c2)C12CCN(Cc1ccc(F)cc1F)CC2 (stereo not drawn)	-24.1%
CNC(=O)[C@@H]1C[C@@H](O)CN1C1CCN(C(=O)CCc2c[nH]c3ccccc23)CC1	0.3%
Cc1cc(C)n(CCC(=O)N2CCC(Cc3nc(C4CCOCC4)no3)CC2)n1	-11.2%
CC(C)Cc1nc(NC(=O)CC[C@H]2NC(=O)c3ccccc3NC2=O)n[nH]1	1.4%
O=C(c1cc(F)ccc1F)N1CCCC2(C1)NC(=O)N(Cc1cccc(Cl)c1)C2=O (stereo not drawn)	?
COc1ccc(CCNC(=O)c2ccc3c(c2)N(C)C2CCCN2C3=O)cc1OC (stereo not drawn)	-13.8%
Cn1cnc(S(=O)(=O)N2CCOCCNC(=O)[C@@H]3CCC[C@@H]32)c1	2.5%
COc1ccc2nc3n(c2c1)[C@@H](CNC(=O)c1ccccc1)COC3	0.7%[70.6 µM]
Cc1cccc(C(=O)N2CC(C(=O)NCCc3ccncc3)C3(CCOCC3)C2)c1 (stereo not drawn)	-6.3%
COCCN[C@@H]1C[C@@H]2c3[nH]c4ccccc4c3C[C@@H](C(=O)OC)N2[C@H](c2ccc(C(C)C)cc2)C1	?
CCC(CC)c1cc([C@H]2CN3CC[C@H]2C[C@@H]3CNC(=O)c2cc(OC)c(OC)c(OC)c2)nc(-c2ccncc2)n1	?
COc1ccc(-c2nccc3c(=O)cc(N4CCOCC4)oc23)cc1OC	-1.0%[70.6 µM]
CC(C)(C)NC(=O)C1CCCN(C2CCN(C3Cc4ccccc4C3)CC2)C1 (stereo not drawn)	0.0%
Cc1ccccc1Nc1cnc2ccc(-n3ccnc3)nn12	4.0%[70.6 µM]
CN1CCC(NC(=O)C2CCC(=O)N(Cc3cccc(C(F)(F)F)c3)C2)CC1 (stereo not drawn)	4.6%
COCc1cn(C[C@H]2C[C@@H](NC(=O)CC(C)(C)C)[C@H](O)[C@@H]2O)nn1	-5.3%[70.6 µM]
O=C(Cn1ncc2ccccc2c1=O)N1CCCCC1CCn1cccn1 (stereo not drawn)	-2.7%
COc1ccc(NC(=O)c2c(-c3cnn(C)c3NCc3ccc(C#N)cc3)noc2C)cc1	0.5%
COc1ccc(Cl)cc1NC(=O)CCC1CCCN(c2ccc(C(F)(F)F)cn2)C1 (stereo not drawn)	-19.9%
O=C(Nc1ccc(Cl)cc1)Nc1ccc2n(c1=O)C[C@H]1C[C@@H]2CN(C(=O)c2ccc3ccccc3c2)C1	-23.4%
CC(C)N1CCN(C2CCOC3(CCN(C(=O)C4CC4)CC3)C2)CC1 (stereo not drawn)	-0.4%
C[S+](=O)([O-])N1CCNc2cnc(Nc3cccc(C(F)(F)F)c3)nc2C1	?
Cn1cc(CN2C[C@H](C(=O)Nc3cccc(F)c3)C[C@@H]2c2cccc(C(F)(F)F)c2)cn1	-4.8%
CCC(c1cccs1)N1C(=O)[C@H]2CN(S(=O)(=O)c3cccc(F)c3)C[C@H]2C1=O (stereo partly drawn)	0.2%
O=C(c1ccccc1F)N1CCC(Oc2ncccc2C(=O)N2CCCCC2)C1 (stereo not drawn)	1.9%
COc1ccc(CNC(=O)N2CCC(Oc3ccc(-c4noc(C5CC5)n4)cc3)C2)cc1 (stereo not drawn)	17.8µM*
CCc1nc(-c2c3n(c(=O)n(CC(=O)Nc4ccc(C)cc4C)c2=O)CCCCC3)no1	3.3%
CCC(CC)C(=O)NC[C@@H]1C=C(C)[C@H](Cc2nc3ccc(C(=O)OC)cc3[nH]2)C[C@H]1C(C)C	-11.9%
O=C1CNc2ccc(C(=O)NCc3cc4n(n3)CCCNC4)cc2N1	-0.6%
O=C(NC1CCCCC1)C1(CCO)CCN(c2ncccn2)C1 (stereo not drawn)	0.3%
Cc1cccnc1CN(Cc1ccccc1)C(=O)C1NCCc2[nH]cnc21 (stereo not drawn)	0.4%
O=C(Nc1cccc(C(F)(F)F)c1)c1nc2c(o1)CCN(Cc1cccs1)CC2	?
O=C(CCC1CCCC1)N1CCCCCC1c1nc(-c2ccncc2)no1 (stereo not drawn)	-24.9%
COc1ccc(C2(C(=O)N3CCCCCC3c3nc(C4CC4)no3)CC2)cc1 (stereo not drawn)	-14.9%
COCCNC(=O)N[C@@H]1CN(c2ncccn2)C[C@H]1CN(C)C	3.9%
O=C(NC[C@H]1O[C@H](Cc2cc(CN3CCOCC3)on2)CC[C@@H]1O)c1ccccc1	0.2%[70.6 µM]

Single entries from the entries so far.
hNpr1 antagonist result of `O=C(NC[C@H]1O[C@H](Cc2cc(CN3CCOCC3)on2)CC[C@@H]1O)c1ccccc1` → 0.2%[70.6 µM]
hNpr1 antagonist result of `Cc1cccnc1CN(Cc1ccccc1)C(=O)C1NCCc2[nH]cnc21` (stereo not drawn) → 0.4%

Next part
SMILES	hNpr1 antagonist
Cc1ccc(C(=O)N2CCC(N3C(=O)C(OCC4CC4)C34CCOCC4)CC2)cn1 (stereo not drawn)	5.4%
O=C(NC1CCCC1)c1ccc(-c2ccc(N3CCSCC3)nc2)cc1	3.2%
CCc1noc(-c2cn(C3CCCN(C(=O)c4ccc(OC(F)(F)F)cc4)C3)nn2)n1 (stereo not drawn)	-9.7%
CN(C)c1ccc(CN2CC(N3CCc4ccccc43)C2)cc1	-6.4%[70.6 µM]
C#CCN(C)C(=O)c1c(-c2ccc(F)cc2)noc1[C@H](C)O	-2.1%[70.6 µM]
COc1ccc(C(=O)N2CC[C@H]3C(=O)NCCCCCCN(Cc4ccncc4)[C@@H]3C2)cc1F	0.0%
O=C(N[C@@H]1CN(C(=O)c2nccc3ccccc23)CC[C@@H]1CO)C1CC1	-0.8%
CCOc1ccc(NC(=O)[C@@H]2COCC(=O)N2Cc2ccc(C)cc2)cc1	-1.2%
O=C(NC1CCN(c2cc(-c3ccc(Cl)cc3)[nH]n2)CC1)c1ccccc1F	-20.1%
Cc1cccc2cc(C(=O)N3CC[C@H](CO)[C@H](O)C3)oc12	3.2%
COCCN1CCCC2(CCN(c3nc4c(c(=O)[nH]c(=O)n4C)n3C)C2)C1=O (stereo not drawn)	-1.9%

Only part of the results is shown (hit frequency here may not be typical).
